PAFAH2 inh – PAFAH2 enzyme inhibitors, primary screen, biochemical, fluorescence polarization, human. AID 492956, 2010. inhibition, % at 3.39 µM. recombinant PAFAH2, FP-rhodamine activity probe. Platelet-activating factor acetylhydrolase 2, cytoplasmic (Homo sapiens), Q99487. 340,000 tested, 0.99% active;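 active means inhibition above the mean over all tested compounds plus 3 SD, cut at about 30% in these data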;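 further: inhibitors block probe labeling of enzyme so polarization drops; 0% = enzyme with DMSO and 100% = wells lacking PAFAH2 protein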
LYPLA2 counter – LYPLA2 inhibitors, primary screen, counter-screen for PME1 inhibitor project, biochemical, fluorescence polarization, FP-Rh probe ABPP | Acyl-protein thioesterase 2 (Homo sapiens), O95372 | recombinant LYPLA2 | inhibition, % at 5.9 µM | 320,000 tested, 0.38% active | AID 2177, 2009;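 active means inhibition above the screen-wide mean plus 3 SD, limit set per campaign, cut at about 26% in these data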;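 further: 0% = LYPLA2 with DMSO and 100% = wells lacking LYPLA2 enzyme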
Target sequence (O95372 whole entry, looked up): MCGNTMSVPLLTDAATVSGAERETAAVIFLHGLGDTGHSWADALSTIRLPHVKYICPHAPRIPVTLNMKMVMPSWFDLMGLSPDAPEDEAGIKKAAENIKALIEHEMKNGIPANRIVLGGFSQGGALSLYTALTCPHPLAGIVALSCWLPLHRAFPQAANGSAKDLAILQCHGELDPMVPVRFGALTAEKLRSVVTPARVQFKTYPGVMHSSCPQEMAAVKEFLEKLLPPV
ZTA counter – counter-screen for EBNA-1 inhibitors: inhibitors of Epstein-Barr virus ZTA; ZTA-DNA binding, fluorescence polarization; P03206; 320,000 tested, 0.15% active; inhibition, % at 11 µM; in the data active means inhibition above about 33%
Target sequence (P03206 whole entry, looked up): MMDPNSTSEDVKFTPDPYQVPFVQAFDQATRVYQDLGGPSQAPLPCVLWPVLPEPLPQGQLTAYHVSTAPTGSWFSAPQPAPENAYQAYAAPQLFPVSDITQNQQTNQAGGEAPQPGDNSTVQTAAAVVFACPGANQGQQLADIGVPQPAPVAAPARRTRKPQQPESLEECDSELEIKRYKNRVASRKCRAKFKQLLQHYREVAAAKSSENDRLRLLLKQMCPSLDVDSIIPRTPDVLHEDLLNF
pPAFAH FP inh – pPAFAH enzyme inhibitors, primary screen, biochemical, fluorescence polarization, human. Platelet-activating factor acetylhydrolase (Homo sapiens), Q13093. recombinant pPAFAH, FP-rhodamine probe fluorescence polarization. inhibition, % at 3.39 µM. 330,000 tested, 1.5% active. AID 463082, 2010;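 active means inhibition above the mean inhibition across the screen plus 3 SD, cut at about 25% in these data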;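 further: inhibitors block binding of the rhodamine activity-based probe so polarization drops; 0% = enzyme with DMSO and 100% = wells lacking pPAFAH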
EBNA-1 inhibitor – EBNA-1 DNA-binding inhibitors, primary screen, biochemical, fluorescence polarization; inhibition, % at 14.8 µM; 300,000 tested, 0.34% active; in the data active means inhibition above about 28%
LYPLA1 counter – LYPLA1 inhibitors, primary screen, counter-screen for PME1 inhibitor project, biochemical, fluorescence polarization, FP-Rh probe ABPP. 320,000 tested, 0.16% active. inhibition, % at 5.9 µM. AID 2174, 2009. Acyl-protein thioesterase 1 (Homo sapiens), O75608. recombinant LYPLA1;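 active means inhibition above the mean of all tested compounds plus 3 SD, set per campaign, cut at about 14% in these data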;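 further: inhibitors block serine hydrolase probe labeling of LYPLA1 so polarization falls; 0% = enzyme with DMSO and 100% = wells lacking LYPLA1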
Target sequence (O75608 whole entry, looked up): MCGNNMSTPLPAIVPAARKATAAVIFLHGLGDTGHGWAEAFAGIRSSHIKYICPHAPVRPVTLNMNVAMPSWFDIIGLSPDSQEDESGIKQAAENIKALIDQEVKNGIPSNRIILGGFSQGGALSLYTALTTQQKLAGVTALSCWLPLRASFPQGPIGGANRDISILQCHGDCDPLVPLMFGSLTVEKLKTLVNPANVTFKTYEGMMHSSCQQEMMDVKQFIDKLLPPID
PAFAH1B3 inh – PAFAH1B3 enzyme inhibitors, primary screen, biochemical, fluorescence polarization, human; Platelet-activating factor acetylhydrolase IB subunit alpha1 (Homo sapiens), Q15102; recombinant PAFAH1B3, FP-rhodamine probe; inhibition, % at 3.39 µM; 340,000 tested, 0.28% active;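 active means inhibition above the screen-wide average of all tested compounds plus 3 SD, cut at about 25% in these data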;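 further: 0% = enzyme with DMSO only and 100% = wells lacking PAFAH1B3 protein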
Target sequence (Q15102 whole entry, looked up): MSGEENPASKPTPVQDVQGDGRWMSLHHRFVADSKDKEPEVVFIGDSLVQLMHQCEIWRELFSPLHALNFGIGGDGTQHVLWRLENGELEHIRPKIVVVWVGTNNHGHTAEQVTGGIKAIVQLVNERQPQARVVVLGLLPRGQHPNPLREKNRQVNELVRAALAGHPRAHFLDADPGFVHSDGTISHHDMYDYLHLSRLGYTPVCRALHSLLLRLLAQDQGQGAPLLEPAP
PREPL inh – PREPL enzyme inhibitors, primary screen, biochemical, fluorescence polarization; recombinant PREPL, fluorescence polarization activity-based probe; Prolyl endopeptidase-like (Homo sapiens), Q4J6C6; inhibition, % at 5.96 µM; 320,000 tested, 0.68% active; in the data active means inhibition above about 43%;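 further: 0% = enzyme with DMSO and 100% = wells lacking enzyme; many of its hits are not listed in these tables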
Starred values were filed as active, the others as inactive; / = no result given. A portion of the library; rates above refer to the full screens.

canonical_smiles,PAFAH2 inh,PREPL inh,LYPLA2 counter,LYPLA1 counter,EBNA-1 inhibitor,ZTA counter,PAFAH1B3 inh,pPAFAH FP inh
CC(NC(=S)NNS(=O)(=O)c1ccc(C(C)(C)C)cc1)c1ccccc1 (configuration not stated),9,-8,-8,0,-2,-6,6,-3
CCCNC(=O)NC(C)C12CC3CC(CC(C3)C1)C2 (configuration not stated),9,7,5,0,-11,-10,8,-3
Cc1ccc(S(=O)(=O)NCCC(=O)NCCSc2ccc(Br)cc2)cc1,-19,0,4,1,7,3,-2,7
CSc1ccc(CCNC(=O)c2cc(C)nn2-c2ccccc2)cc1,6,8,-4,-4,-3,-13,5,1
CCc1ccc([C@@H]2CC=C(C(=O)O)[C@H](c3ccc(C)cc3)N2S(=O)(=O)c2ccc(C)cc2)cc1,7,15,/,/,/,/,8,13
CCCCC[C@@H]1C=C(C(=O)O)[C@H](c2ccc(Cl)cc2)N1S(=O)(=O)c1ccc(C)cc1,-2,16,/,/,/,/,3,-1
Cc1ccc(SCC(=O)NCc2ccc(F)cc2)cc1,-2,-2,4,0,8,5,3,3
COc1ccc(NS(=O)(=O)c2cccc(C(=O)N/N=C(\C)c3cccnc3)c2)cc1,1,/,/,/,/,/,11,/
CCCn1nnnc1NC(=O)CSc1ccc(Cl)cc1,5,-7,-3,0,-1,3,7,1
Cc1ccc(CSc2nnc3c(n2)OC2(Nc4ccccc4-3)C(=O)Nc3ccc(F)cc32)cc1 (configuration not stated),9,-4,-2,2,4,1,2,4
COc1cc(C#N)ccc1OCC(=O)N1CCc2ccccc2C1,4,2,5,2,3,0,8,3
CC1(C)NC(=O)N(CCCCSc2ccc(Cl)cc2)C1=O,0,10,-4,-3,-8,6,2,22
COCCCNC(=S)NNC(=O)C1CC1c1ccc(C(C)(C)C)cc1 (configuration not stated),-5,/,/,/,/,/,6,/
CCCCCOc1ccc(C(=O)CCC(=O)NNC(=O)c2ccncc2)cc1,1,/,/,/,/,/,1,/
CC(C)[C@H](NC(=O)NCc1ccc(Cl)cc1)C(=O)O,-9,12,1,0,-3,-5,-6,2
CCN(Cc1ccccc1)S(=O)(=O)c1cc(C(=O)NC(C)C2CC3CCC2C3)ccc1OC (configuration not stated),0,5,3,-3,11,14,0,5
NC(=O)C1(N2CCCCC2)CCN(S(=O)(=O)c2ccc(Cl)s2)CC1,7,0,3,1,4,-7,9,-2
O=C(CCSc1ccc(Cl)cc1)c1cccs1,-2,5,10,6,-11,-15,5,12
O=C(O/N=C(/c1ccccc1)c1ccncc1)c1ccccc1[N+](=O)[O-],20,33,0,-2,4,22,11,11
O=S1(=O)CCO[C@H]2Cc3ccccc3[C@H]2N1Cc1ccc(Cl)cc1,0,-6,-3,-5,-3,-1,8,1
N/C(=N\OC(=O)CCCOc1ccccc1)c1cccc(Br)c1,6,-1,-2,0,-4,0,4,0
Cc1ccc(OCC(=O)Nc2ccc(C(=O)O)cc2NC(=O)COc2ccc(C)c(C)c2)cc1C,2,-11,-7,-9,6,2,5,0
Cn1cnnc1Sc1ccc(C(=O)NCCC23CC4CC(CC(C4)C2)C3)cc1[N+](=O)[O-],6,2,9,5,1,-5,1,-1
CC(c1ccco1)N(C(=O)C12CC3CC(CC(C)(C3)C1)C2)c1ccccn1 (configuration not stated),0,15,3,-7,-3,-13,-6,1
COc1cccc(/C=C/C(=O)OCC(=O)N2CCN(c3ccccc3)CC2)c1,1,13,-3,-2,/,4,-3,2
CCN(CCn1cccn1)C(=O)CCc1nnc(C2(c3ccc(Cl)cc3)CCC2)o1,-2,3,2,-2,-8,-8,8,1
COCC(=O)Nc1nnc(COc2ccc(Cl)cc2)s1,5,0,2,-5,6,8,7,8
COc1ccc(NC(=O)CCSc2ccc(C)cc2)cc1S(=O)(=O)Nc1ccccc1Cl,3,6,-46,-27,0,5,0,6
Cc1ccc(C)c(SCc2nc3sc(C(=O)O)c(C)c3c(=O)[nH]2)c1,4,-3,-5,-6,12,2,4,2
CC(C)c1ccc(CCNC(=O)CSC(=S)N2CCCC2)cc1,3,12,3,0,9,-2,1,12

A different layout for some results above.
Every second line gives: PAFAH2 inh, PREPL inh, LYPLA2 counter, LYPLA1 counter, EBNA-1 inhibitor, ZTA counter, PAFAH1B3 inh, pPAFAH FP inh
O=S1(=O)CCO[C@H]2Cc3ccccc3[C@H]2N1Cc1ccc(Cl)cc1
  0, -6, -3, -5, -3, -1, 8, 1
O=C(O/N=C(/c1ccccc1)c1ccncc1)c1ccccc1[N+](=O)[O-]
  20, 33, 0, -2, 4, 22, 11, 11
CC(c1ccco1)N(C(=O)C12CC3CC(CC(C)(C3)C1)C2)c1ccccn1 (configuration not stated)
  0, 15, 3, -7, -3, -13, -6, 1

Quoted at random: six entries already listed, in no set order.
canonical_smiles,PAFAH2 inh,PREPL inh,LYPLA2 counter,LYPLA1 counter,EBNA-1 inhibitor,ZTA counter,PAFAH1B3 inh,pPAFAH FP inh
CCN(Cc1ccccc1)S(=O)(=O)c1cc(C(=O)NC(C)C2CC3CCC2C3)ccc1OC (configuration not stated),0,5,3,-3,11,14,0,5
CC(c1ccco1)N(C(=O)C12CC3CC(CC(C)(C3)C1)C2)c1ccccn1 (configuration not stated),0,15,3,-7,-3,-13,-6,1
CC(C)c1ccc(CCNC(=O)CSC(=S)N2CCCC2)cc1,3,12,3,0,9,-2,1,12
COc1cccc(/C=C/C(=O)OCC(=O)N2CCN(c3ccccc3)CC2)c1,1,13,-3,-2,/,4,-3,2
Cc1ccc(C)c(SCc2nc3sc(C(=O)O)c(C)c3c(=O)[nH]2)c1,4,-3,-5,-6,12,2,4,2
CCN(CCn1cccn1)C(=O)CCc1nnc(C2(c3ccc(Cl)cc3)CCC2)o1,-2,3,2,-2,-8,-8,8,1

(cont.)
canonical_smiles,PAFAH2 inh,PREPL inh,LYPLA2 counter,LYPLA1 counter,EBNA-1 inhibitor,ZTA counter,PAFAH1B3 inh,pPAFAH FP inh
CCOc1ccccc1-c1cc(C(=O)N/N=C/c2ccc3c(c2)OCO3)c2ccccc2n1,-20,/,/,/,/,/,-2,/
COCCCn1c(C(=O)N2CC(C)OC(C)C2)cc2c(=O)n3ccccc3nc21 (configuration not stated),1,6,0,0,-6,-5,6,-1
CC(C)c1ccc(S(=O)(=O)N2CCN(C(=O)n3ccnc3)CC2)cc1,15,-3,3,-1,/,12,-3,30*
O=C(CN1CCN(S(=O)(=O)c2ccc(Br)cc2)CC1)N/N=C/c1ccccc1C(=O)O,5,-7,12,1,-6,4,4,3
O=C(O)c1ccc(NCCC2=CCCCC2)c([N+](=O)[O-])c1,-2,-7,10,-1,-11,8,3,8
Cc1snc(SCC(=O)N/N=C(\N)COc2cccc(C(F)(F)F)c2)c1C#N,2,13,11,2,0,-15,5,1
Cc1ccccc1S(=O)(=O)N1[C@@H](c2ccccc2)C(C(=O)O)=CC[C@H]1c1ccc(Cl)cc1,9,3,-8,-2,11,10,11,13
Cc1ccc(SCCSc2ncccn2)cc1,-6,-8,3,-1,-4,1,1,4
O=C(O)c1cccc(NS(=O)(=O)c2cc(S(=O)(=O)c3ccc(Cl)cc3)ccc2Cl)c1,5,0,6,-2,4,8,1,3
CC1(C)CCC[C@@]2(C)CC=C(C(=O)O)[C@@H]3C[C@]312,-1,-1,1,-2,8,1,9,4
N#CCC(=O)NCC1(c2ccccc2)CCCC1,-3,2,1,-2,-8,0,0,-1
O=C(COc1ccc2c(-c3ccccc3)cc(=O)oc2c1)NC(Cc1c[nH]c2ccccc12)C(=O)O (configuration not stated),0,12,/,/,/,/,3,-2
CCOC(=O)c1cnn(-c2nc3c(C)cccc3s2)c1C(F)(F)F,-6,-2,-1,-1,-8,-4,6,5
CCn1cc(C(=O)N2CCc3ccccc32)c(=O)c2cc(S(=O)(=O)N3CCOCC3)ccc21,-2,-10,-7,-1,3,4,9,3
Cc1ccc(NC(=O)CSCC(=O)Nc2cc(Cl)ccc2N2CCN(C)CC2)cc1,-9,17,2,0,-1,-12,-10,1
N/C(Cc1cccc2ccccc12)=N\OC(=O)Cc1cccs1,7,-5,-13,2,0,-1,-1,5
CC1CCN(C(=O)c2ccc(CSc3ccc(Cl)cc3)cc2)CC1,1,19,12,6,7,-4,0,11
O=C(NCCSc1ccc(Cl)cc1)c1ccco1,3,17,3,4,-11,-11,16,2
Cn1c(=O)n(CC(=O)N2CCN(c3nnc(-c4ccccc4)c4ccccc34)CC2)c2ccccc21,4,12,5,3,14,-1,3,4
CCOC(=O)c1cccc(-n2cccc2/C=C2\NC(=O)N(CC(=O)O)C2=O)c1,1,-1,/,/,/,/,8,3
O=C(NCCc1ccc(Cl)cc1)c1cc(=O)[nH]c2ccccc12,-8,1,-5,-2,-9,6,-1,0
Cc1ccc(S(=O)(=O)N2[C@@H](c3ccc(Cl)cc3)C(C(=O)O)=CC[C@H]2c2cccc(C)c2)cc1,6,5,4,0,5,-8,11,0
Cc1ccc(S(=O)(=O)/N=C(/Nc2ccc([N+](=O)[O-])cc2[N+](=O)[O-])c2ccccc2)cc1,8,8,/,/,/,/,7,3
CCCCCCOc1ccc(C(=O)O)cc1,-12,2,8,2,-13,-8,4,3
N#Cc1ccc(-c2ccc(F)cc2)nc1SCC(=O)Nc1sc2c(c1C#N)CCC2,-8,-31,-5,1,-9,-21,-4,10
COc1cc(S(=O)(=O)N2CCCC3(CCCCC3)C2)ccc1-n1cnnn1,-9,0,-5,-3,-1,0,14,-4
Cc1ccc(SCCC(=O)NCCSCc2ccco2)cc1,9,4,-2,-1,15,-7,-6,3
Cc1ccc(SCC(=O)OCC(=O)NC2(C#N)CCCCC2)cc1,-2,/,/,/,/,/,4,/
O=C(O)C(Cc1ccccc1)NS(=O)(=O)c1ccc(Cl)cc1 (configuration not stated),17,1,5,5,-9,-10,4,4
CC1CCN(S(=O)(=O)c2ccc(C(=O)Nc3nnc(-c4ccncc4)o3)cc2)CC1,0,3,5,1,-9,9,-2,-2
CC1CN(CCCCSc2ccc(Cl)cc2)CC(C)O1 (configuration not stated),-2,11,-2,0,12,0,11,5
O=C(O)c1nc(-c2ccccc2)n(-c2cccc(C(F)(F)F)c2)n1,-5,-6,-8,-1,7,5,0,4
CCCc1cc(=O)[nH]c(SCCOc2ccc(Cl)cc2)n1,6,9,-2,1,-2,-8,4,6
O=C(CCc1nnc(C2(c3ccc(Cl)cc3)CCC2)o1)N1CCCC1,6,3,-4,-1,-23,7,-1,2
N#Cc1cc2c(nc1SCC(=O)Nc1sc3c(c1C#N)CCC3)CCC2,-7,6,-7,3,1,0,-4,6
Nc1ccc(C(=O)N2CCN(S(=O)(=O)c3ccc(Cl)cc3)CC2)cc1[N+](=O)[O-],5,14,8,-1,-3,9,3,-2
Nc1nc(C23CC4CC(CC(Cl)(C4)C2)C3)cs1,-5,-11,2,-1,9,-12,0,4
CCCCCCC(=O)Oc1cccc(N2C(=O)C3CCCCC3C2=O)c1 (configuration not stated),0,11,2,-1,-7,-1,-6,4
O=C(COC(=O)CSc1ccc(Br)cc1)NCc1ccco1,3,1,-2,-2,-5,20,4,17
c1ccc(SCc2nc(-c3ccccn3)no2)cc1,1,17,-1,3,-9,3,-4,-4
O=C(C1CC(c2ccc(F)cc2)=NO1)N1CCCCC1 (configuration not stated),0,18,6,2,4,1,0,3

Bioassay records from PubChem.
